Bioassay records from PubChem BioAssay.
Prx2 Sm inh = Schistosoma mansoni Prx2 inhibition. S. mansoni Prx2 activity coupled to TGR/GSH (TGR is thioredoxin glutathione reductase), NADPH fluorescence loss, qHTS; some inactives read as strong as hits. Potency, µM. 65,000 tested, 0.07% active. AID 448; active means full or partial inhibition curve with a strong effect at the top dose; inconclusive means weaker partial or single-point curve; inactive means no accepted curve; further: series up to 57 µM; many of its hits are not listed in these tables
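Prx2 activity was followed as the loss of NADPH fluorescence (ex 365/em 450 nm), read every 30 sec for 8 min after H2O2 start. The enzyme mix (50 nM Prx2, 25 nM TGR, GSH, NADPH; pH 7.4 phosphate buffer) was incubated with compound for 15 min at room temperature first.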
Anthrax LT inh = blocks cellular internalization of anthrax lethal toxin | Cells, anthrax lethal toxin internalization, FRET ratio (460/530) | Potency, µM (series often up to 40 µM), for the others: top-dose activity change, negative = inhibition, most hits filed as inhibitors | 70,000 tested, 0.67% active | AID 912; active = well fitted falling ratio curve with the 530 nm signal flat; inconclusive = other ratio curves, or a change in one channel alone; inactive = flat curves in the ratio and both channels; the % refers to the ratio; further: on the % scale 0 is the no-effect control and ±100 the full control effect; nearly all actives have a fitted effect of over 50% in size; tested in ME-180 cells; beta-lactamase reporter
* hit, by the source's call; u = inconclusive; x = not tested or not shown; & = joins results of further samples; [ ] = another dose, or the depositor's remark. Potency means the concentration at half of the fitted maximal effect. An excerpt; count on the stated rates, not on these rows.

SMILES | Prx2 Sm inh | Anthrax LT inh
CCC1(C(=O)OC)NC(c2ccccc2OC)C2C(=O)N(C)C(=O)C21 (stereo not given) | >57 | u
Cn1c(=O)c(-c2ccccc2)nc2cnc(Oc3ccccc3)nc21 | >11.4 | -17.2%
COc1ccc(C2C(C(=O)c3sc(C)nc3C)=C(O)C(=O)N2CCN(C)C)cc1 (stereo not given) | >57 | -0.3%
O=C(Nc1ccc(S(=O)(=O)NCCc2ccccc2)cc1)c1ccc(Br)o1 | u | -22.4%
CCCCCCC(N)CC(=O)O (stereo not given) | x | -7.4%
O=c1ccc2cc3c([nH]c4ccc(Br)cc43)oc-2c1O | >57 | u
Cc1ccc(S(=O)(=O)N2CCC(C(=O)N3CCC[C@H]3C(=O)NCc3ccco3)CC2)cc1 | >57 | 6.3%
O=C(CSc1nccc(=O)[nH]1)Nc1ccc(Br)c(Cl)c1 | >57 | 11.1%
CCCC(=O)Nc1nnc(Sc2ccc(N(C)C)cc2)s1 | >57 | -1.9%
Clc1ccc(OCc2nn3c(C4CCCCC4)nnc3s2)cc1 | >57 | -2.9%
COc1ccc(S(=O)(=O)N(CCc2ccccc2)CC(=O)NCCCO)cc1 | >57 | -9.4%
CCOc1ccc(-c2nc(C#N)c(NCc3ccc4c(c3)OCO4)o2)cc1 | >57 | u
O=C(CSc1nc2ccccc2nc1SCC(=O)N1CCOCC1)N1CCOCC1 | x | -5.5%
O=C(Nc1ccc2c(c1)OCO2)N1CCN(C/C=C/c2ccccc2)CC1 | >57 | -17.3%
CC(=O)C1=C(Nc2ccc(C)cc2)CC(C)(O)C(C(C)=O)C1c1ccco1 (stereo not given) | >57 | -7.7%
COc1cc(C(=O)O[C@@H]2CC(C)=CC[C@@]3(C)CC[C@](O)(C(C)C)[C@H]23)ccc1O | >57 | u
O=C(C1CC1)N1CCN=C1SCc1ccccc1Cl | >57 | 3.5%
COc1cccc(NC(=O)N2CCCC2C(=O)NC(C)C)c1 (stereo not given) | >57 | 1.8%
Clc1ccccc1CNc1ncnc2nc[nH]c12 | >57 | 13.8%
CCCC1(CCC)NC(=O)N(CC(=O)Nc2cccc(OC)c2)C1=O | >57 | -11.2%
CCOC(=O)c1cc(NC(=O)c2c(C)noc2C)cc(C(=O)OCC)c1 | >57 | -7.5%
Cc1ccc(C(C(=O)NC2CCCC2)N(Cc2ccc(F)cc2)C(=O)c2csnn2)o1 (stereo not given) | >57 | -8.2%
COC(=O)C1=C(C)N(Cc2ccco2)C(=O)C1 | >57 | u
CCSC1=C(C#N)C(c2ccc(C)s2)CC(=O)N1 (stereo not given) | x | 3.7%
NCCc1nc(-c2nc(C(=O)O)cs2)cs1 | >57 | 6.7%[8 µM]
COc1ccccc1N1CCN(C[C@@H](C(=O)NC(C)(C)C)c2ccccc2)CC1 | >57 | u
CCOC(=O)c1cnc2c(C)cccc2c1NCc1ccco1 | x | u
O=C(N1CCOCC1)C1(c2ccccc2)CCNCC1 | >57 | 10.2%[8 µM]
Cc1ccc2c(c1)c1c(n2CC(O)Cn2nc(C)c(Br)c2C)C(=O)CCC1 (stereo not given) | >57 | 3.1%
Cc1ccc(N(C(=O)Cn2nnc3ccccc32)C(C(=O)NCc2ccco2)c2cccnc2)cc1 (stereo not given) | >57 | -2.2%

Single values from the results shown:
Reading of Cc1ccc2c(c1)c1c(n2CC(O)Cn2nc(C)c(Br)c2C)C(=O)CCC1 (stereo not given) under Prx2 Sm inh: >57
Reading of Cc1ccc(N(C(=O)Cn2nnc3ccccc32)C(C(=O)NCc2ccco2)c2cccnc2)cc1 (stereo not given) under Anthrax LT inh: -2.2%

Later entries.
SMILES | Prx2 Sm inh | Anthrax LT inh
Clc1ccc(CN2CCCN(Cc3ccc(Cl)cc3)C2c2cc3ccccc3c3ccccc23)cc1 | >11.4 | -26.3%[8 µM]
CCn1nnc(NC(=O)c2c(OC)cccc2OC)n1 | >57 | u
O=C(CN1C(=O)c2ccccc2S1(=O)=O)NCc1ccccc1Cl | >57 | -8.0%
CCOC(=O)C1C(=O)NC(C)C1c1ccccc1 (stereo not given) | >57 | -2.8%
COCC(=O)N1CCC2(CC1)CN(C(=O)Nc1cccc(C#N)c1)C2 | >57 | u
CCCCCSc1nnc(-c2cc(Br)ccc2N)c(=O)[nH]1 | >57 | -9.7%
CCCCNC(=O)CN1C(=O)C(CC)Oc2ccc(Cl)cc21 (stereo not given) | >57 | x
COC(=O)c1c(NC(=O)c2ccc(Br)s2)sc2c1CCC2 | >57 | 7.5%
CC1CCN(c2oc(-c3ccccc3F)nc2C#N)CC1 | >57 | u
Cn1c(NC(=O)CC(C)(C)C)cc(=O)n(C)c1=O | x | 21.2%
O=C(COc1nnc2ccccn12)N1CCN(S(=O)(=O)c2ccccc2)CC1 | >57 | -8.2%
CC1CN(S(=O)(=O)c2ccc(NC(=O)c3cc(-c4ccccc4O)n[nH]3)cc2)CC(C)O1 (stereo not given) | >57 | u
Cc1ccc(-c2ccc(=O)[nH]n2)cc1 | >57 | x
CCc1cc(=O)oc2cc(OC(C)=O)cc(OC(C)=O)c12 | x | 1.1%
COCC(=O)N1CCC[C@@]2(CCN(C(=O)Nc3ccc(OC)cc3)C2)C1 | >57 | 3.0%
O=C1CC(N2CCN(c3ccccc3)CC2)C(=O)N1c1ccc2c(c1)OCCO2 (stereo not given) | >57 | 0.7%
O=C(CN1c2cccc3cccc(c23)S1(=O)=O)NCc1ccc2c(c1)OCO2 | >57 | -4.6%
Cc1ccc2c(c1)N(C(C)C(=O)NCCc1ccccc1)C(=O)CO2 (stereo not given) | >57 | -3.5%
Cc1cc(C)nc(N2CCCC(C(=O)NCc3cccs3)C2)n1 (stereo not given) | >57 | -0.9%
CCCn1c(=O)n(C)c(=O)c2c(SCc3cc(C(C)=O)ccc3OCC)nc(C3CC3)nc21 | >57 | u
O=C(c1ccccc1Cl)N1CCc2ccccc2C1 | >57 | -8.6%
CCOC(=O)c1oc2nc(C)c3c(c2c1N)CC(C)(C)OC3 | >57 | 9.2%
COc1ccc(-c2c(C)oc3c(CN4CCCCC4C)c(O)ccc3c2=O)cc1OC (stereo not given) | >57 | -2.2%
CC(C)(C)NC(=O)CN1CCC(O)(c2ccccc2)CC1 | >57 | -4.3%
CCN(CCCNC(=O)COc1cc(=O)n(CC)c2ccccc12)c1ccccc1 | >57 | u
COc1ccc(N(CC(=O)Nc2cccc(C)c2C)S(=O)(=O)c2c(C)n[nH]c2C)cc1 | >57 | 7.2%
CN(C)C(=O)C(CCN1CCC(O)(c2ccc(Cl)cc2)CC1)(c1ccccc1)c1ccccc1 | >57&>57&>57 | u
CCOC(=O)c1ccc(CNC(=O)CSc2nnnn2-c2ccc(Cl)cc2)o1 | >57 | 16.5%
O=C(Nc1ccc2c(c1)OCO2)c1cccs1 | >57 | 0.0%
CCOC(=O)N1CCC(NC(=O)c2ccc3c(c2)N(C)CCS3)CC1 | >57 | u
O=C(c1ccc(CS(=O)(=O)c2ccc(Br)cc2)o1)N1CCCCCC1 | >57 | u
COc1ccccc1S(=O)(=O)n1cc(Cc2ccccc2)c(N)n1 | >57 | -7.1%
Cn1c(N)c(C(=O)COC(=O)C2(c3ccccc3F)CCCC2)c(=O)n(C)c1=O | >57 | 4.7%
CCCCOc1ccc(-c2c(C#N)c(N)nc(SCC(N)=O)c2C#N)cc1 | >57 | u
COc1ccc(/C=C/c2cc(OC)cc(=O)o2)cc1 | x | -1.6%
CCc1ccc(NC(=O)CSc2nc3ccccc3c(=O)n2CCN2CCOCC2)cc1 | >57 | x
CCOc1cc(/C=N/n2cnnc2)ccc1OCC(=O)Nc1ccccc1OC | x | 2.7%
O=C(NC1CCCCC1)NC1CC2CCC(C1)N2C(=O)NC1CCCCC1 (stereo not given) | >57 | -8.3%
Cc1ccc(NC(=O)N(Cc2cc3cc(C)cc(C)c3[nH]c2=O)CC2COCCO2)cc1 (stereo not given) | >57 | -6.9%
CCc1ccc(N2C(=O)c3sc4nnc(C)c(=O)n4c3C2=O)cc1 | x | -9.3%
O=C(Nc1cc(C(F)(F)F)ccc1N1CCOCC1)c1cccnc1 | >57 | x
Cc1cccc(C)c1NC(=O)CSCC(=O)O | >57 | -2.4%
O=c1c2c3nc4ccccc4nc3n(/N=C/c3ccco3)c2ncn1CCC1=CCCCC1 | >57 | -1.7%
COc1ccc(C2=NOC(C(=O)NCCN3CCOCC3)C2)cc1 (stereo not given) | >57 | -0.3%
CCOc1ccc2cc(C#N)c(SCC(=O)OC)nc2c1 | >57 | -4.3%
O=C(NCc1ccco1)c1ccc2c(c1)C(=O)c1ccccc1-2 | >57 | -10.8%
O=C1c2ccccc2C(O)N1CCN1CCOCC1 (stereo not given) | >57 | -1.6%
COc1ccc(C(c2nnnn2CC2CCCO2)N2CCN(c3ccc(F)cc3)CC2)cc1 (stereo not given) | >57 | u
COc1ccc(CNc2ccnc(-c3ccc(C(=O)N(C)C)cc3)n2)c(OC)c1 | >57 | -16.0%
N#Cc1nc(Cc2ccccc2)oc1NCc1cccnc1 | >57 | x
C=C(C)CSc1nnc([C@@H](N)Cc2c[nH]c3ccccc23)o1 | >57 | -3.2%
O=S(N1CCCCCC1)C12CC3CC(CC(C3)C1)C2 (stereo not given) | x | -0.7%
Cc1cc(NC(=O)Nc2ccc3c(ccn3C)c2)sn1 | >57&>57 | u
CC1(C)CC(=O)NC=C(c2ccccc2)C1 | >57 | 0.7%
CCOC(=O)Cc1cc(=O)c2c(=O)n(-c3ccccc3)[nH]c2[nH]1 | >57 | -3.6%
O=C(c1ccc(Cl)cc1)N1CCCCC(Sc2nnc(-c3ccc4c(c3)OCO4)o2)C1=O (stereo not given) | >57 | -5.0%
CSc1nc(N)nc(SCCS(=O)(=O)c2ccc(Cl)cc2)c1C#N | >57 | -17.2%
COCCN(C(=O)c1cccc(OC)c1)c1nnc(-c2ccncc2)s1 | >57 | 2.9%
O=c1[nH]c2c(s1)C(c1ccco1)C1C3CCC(C3)C1S2 (stereo not given) | >57 | u
CC(C)C[C@@H](CC(=O)N[C@@H](CCCN)CC(=O)N[C@@H]1CCCC[C@H]1C(=O)N[C@H](CC(=O)N[C@@H](CCC(=O)O)CC(=O)O)Cc1c[nH]c2ccccc12)NC(=O)[C@@H]1CNCC[C@H]1N | >57 | -9.5%

Fetched by compound from the entries so far (5):
SMILES | Prx2 Sm inh | Anthrax LT inh
CCOc1ccc(-c2nc(C#N)c(NCc3ccc4c(c3)OCO4)o2)cc1 | >57 | u
CCOC(=O)c1oc2nc(C)c3c(c2c1N)CC(C)(C)OC3 | >57 | 9.2%
CCOC(=O)c1cc(NC(=O)c2c(C)noc2C)cc(C(=O)OCC)c1 | >57 | -7.5%
O=C(C1CC1)N1CCN=C1SCc1ccccc1Cl | >57 | 3.5%
CCOc1cc(/C=N/n2cnnc2)ccc1OCC(=O)Nc1ccccc1OC | x | 2.7%

The list continues.
SMILES | Prx2 Sm inh | Anthrax LT inh
O=C(O)C1CC=CCC1C(=O)Nc1ccc(S(=O)(=O)N2CCCc3ccccc32)cc1 (stereo not given) | >57 | -6.0%
O=C(Nc1ccc(Cl)c(Cl)c1)c1ccncc1 | x | u
N#Cc1c(NC(=O)CSc2nnnn2C2CCCC2)sc2c1CCCC2 | u | -1.2%
O=C(CC1(O)C(=O)N(Cc2ccccc2)c2ccccc21)c1ccncc1 (stereo not given) | >57 | -25.6%
O=C(CSc1ccc2nnc(-c3ccccc3)n2n1)NCc1ccco1 | >57 | 6.4%
O=C(Nc1ccccn1)c1cc(-n2cnnc2)ccc1Cl | >57 | 1.0%
C[C@@H](CO)NC(=O)[C@H]1C=C2c3cccc4[nH]cc(c34)C[C@H]2N(C)C1 | >57 | u
Cc1ccc(S(=O)(=O)CC(c2ccccc2)N2CCOCC2)cc1 (stereo not given) | >57 | 3.9%
Clc1cccc(-c2nn3c(-c4ccncc4)nnc3s2)c1 | >57 | -10.0%
CC(C)CO/N=C1/[C@H]2O[C@@H]2[C@@H](O)[C@H]2[C@H]1CCn1c(=O)n(C)c(=O)n12 | x | -4.4%[1.6 µM]
CCCCc1noc2c1/C(=N\O)CC(c1ccccc1)C2 (stereo not given) | >57 | -5.4%
N#Cc1nc(Cc2cccc3ccccc23)oc1NCCCN1CCOCC1 | >57 | -13.7%
Cc1ccc(NC(=O)c2cccc(OCc3c(C)noc3C)c2)c(C)c1 | >57 | -12.5%
CC(C)(C)C(=O)Cn1c[n+](N)cn1 | >57 | 4.0%
CSc1nc(-c2ccccc2)nc2c1COC(C)(C)C2 | >57 | -13.5%

Laid out differently: results already given
> CCn1nnc(NC(=O)c2c(OC)cccc2OC)n1
  Prx2 Sm inh: >57; Anthrax LT inh: u

> COc1ccc(CNc2ccnc(-c3ccc(C(=O)N(C)C)cc3)n2)c(OC)c1
  Prx2 Sm inh: >57; Anthrax LT inh: -16.0%

The listing continues:
SMILES | Prx2 Sm inh | Anthrax LT inh
COCCn1c(=O)c(-c2cc(F)cc(F)c2)nc2cnc(Oc3ccc(OC)cc3)nc21 | >57 | u
Cc1[nH]nc2c1C(c1ccc3c(c1)OCO3)C(C#N)=C(N)O2 (stereo not given) | >57 | -0.1%
CNC(=O)c1ccccc1NC(=O)c1cccc(S(=O)(=O)N2CCC(C)CC2)c1 | >57 | -6.8%
CCn1c(SCC(=O)OC2CCCCC2)nc2ccccc2c1=O | >57 | -9.7%
CCOc1ccccc1NC(=O)N1CCC(c2nc3ccccc3[nH]2)CC1 | >57 | u
